Screening data (PubChem)
Lassa entry inh: blocks Lassa virus binding to or entry into cells. Potency, µM (titrated, usually from 37.9 µM), without a hit: top-dose activity change, negative = inhibition, most hits filed as inhibitors. Lassa virus pseudotype entry inhibition, cell reporter; control for the full effect not named in the record. actives 1.2% (n = 300,000); active means well fitted inhibition curve with a large enough effect; inconclusive means small, poorly fitted or top-dose-only effect, or effect the other way; inactive means flat fitted curve, though single readings scatter; tested in HEK293 cells; also: % is scaled to controls: 0 for no effect and ±100 for the full control effect; nearly all actives have a fitted effect of over 50% in size; luciferase read-out
Cruzain inh noDet: blocks cruzain activity in detergent-free assay; purified cruzain, Z-FR-AMC fluorescence, no detergent; Potency, µM, for the others: max response, negative = inhibition, hits mostly inhibitors; actives 2.3% (n = 200,000); active = well fitted curve in the direction sought with a large enough effect; inconclusive = small, poorly fitted or top-dose-only effect, or another doubt; inactive = no such curve, though single readings can be large; an effect the other way counts as inactive or inconclusive;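 also: plate controls were enzyme without inhibitor for no effect and buffer without enzyme for full effect; nearly all actives have a fitted effect of over 40% in size; top concentration of the series not given in the record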
Target sequence (P25779 123-467 limits assumed): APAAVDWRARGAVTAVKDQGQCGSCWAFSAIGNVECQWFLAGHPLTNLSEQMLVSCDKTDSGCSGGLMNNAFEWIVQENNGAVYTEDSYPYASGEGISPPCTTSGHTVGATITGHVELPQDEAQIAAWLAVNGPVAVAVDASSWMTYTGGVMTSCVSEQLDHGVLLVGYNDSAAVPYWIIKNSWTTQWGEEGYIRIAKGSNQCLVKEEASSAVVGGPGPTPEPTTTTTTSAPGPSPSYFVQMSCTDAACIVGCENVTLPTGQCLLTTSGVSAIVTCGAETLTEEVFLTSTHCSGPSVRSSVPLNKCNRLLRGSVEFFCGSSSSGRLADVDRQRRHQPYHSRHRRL
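Detergent-free condition (0.00005% Triton X-100) in acetate buffer pH 5.5 with DTT. 1.5 nM enzyme and compound were pre-mixed 15 min, then 2 uM Z-FR-AMC substrate added; reaction progress from fluorescence change between first and third reads (60 s).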
MARV entry inh: Marburg virus entry inhibition | AID 540276 | actives 1.8% (n = 300,000) | Potency, µM (series often up to 37.8 µM), without a hit: at the highest dose activity change, negative = inhibition, hits mostly inhibitors | Marburg virus pseudotyped entry inhibition, cell reporter; control for the full effect not named in the record; about a third of the inactives were read at about 46 µM; active = well fitted inhibition curve with a large enough effect; inconclusive = small, poorly fitted or top-dose-only effect, or effect the other way; inactive = flat fitted curve, though single readings scatter; tested in HEK293 cells; about a fifth of its hits are not listed in these tables; also: % is scaled to controls: 0 for no effect and ±100 for the full control effect; luciferase read-out
Cruzain inh Det: inhibitors of Trypanosoma cruzi cruzain with detergent; P25779; purified cruzain, Z-FR-AMC fluorescence, 0.01% Triton; Potency, µM, inactives show max response, negative = inhibition, actives largely listed as inhibitors; actives 0.43% (n = 200,000); AID 1478; active = well fitted curve in the direction sought with a large enough effect; inconclusive = small, poorly fitted or top-dose-only effect, or another doubt; inactive = no such curve, though single readings can be large; an effect the other way counts as inactive or inconclusive;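 also: plate controls were neutral wells for no effect and buffer without enzyme for full effect; nearly all actives have a fitted effect of over 40% in size; top concentration of the series not given in the record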
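Detergent-containing arm of a paired screen for aggregation-based inhibition: 0.01% Triton X-100 present. Cruzain at 1.5 nM cleaved 2 uM Z-FR-AMC at pH 5.5 with 5 mM DTT; AMC fluorescence gain over 60 s measured activity.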
2A StopGo: lowers the luciferase signal of an FMDV 2A StopGo reporter | human cells with a luciferase reporter of 2A StopGo recoding; control for the full effect not named in the record | Potency, µM (highest dose often 57.9 µM), for the others: at the top dose signal change, negative = less light | actives 1.2% (n = 410,000) | AID 1159524; active = well fitted falling curve with a large enough effect; inconclusive = small, poorly fitted or top-dose-only effect; inactive = no such curve, though single readings can be large or run the other way; tested in HEK293T cells; also: % is scaled to controls: 0 for no effect and ±100 for the full control effect; nearly all actives have a fitted effect of over 45% in size; luciferase light after 4 h
RE007 growth inh: less growth of the S. pombe RE007 Vpr strain | S. pombe RE007 Vpr strain, BacTiter-Glo ATP luminescence, 24 h; control for the full effect not named in the record | Potency, µM (titrated, usually from 92.2 µM), for the others: top-dose activity change, negative = less growth | actives 0.21% (n = 360,000) | AID 651644; active = well fitted falling curve with a large enough effect; inconclusive = small, poorly fitted or top-dose-only effect; inactive = no such curve, though single readings can be large or run the other way;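 also: % is scaled to controls: 0 for no effect and ±100 for the full control effect; nearly all actives have a fitted effect of over 50% in size; the assay follows cell death caused by Vpr and the record does not say whether a fall means rescue or toxicity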
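Fission yeast RE007 carrying one integrated HIV-1 vpr copy, seeded at OD 0.01 in PMG+AL medium with 23 nL pinned compound. Grown 24 h at 30 degrees; viability read by BacTiter-Glo luminescence after 5 min.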
NS1 inh: blocks influenza NS1 protein function; S. cerevisiae slowed by influenza A NS1, growth recovery by OD600; Potency, µM (doses to about 46.1 µM), for inactives: top-dose activity, positive = more growth; actives 0.4% (n = 270,000); AID 2326; also: actives are rising curves; nearly all actives have a fitted effect of over 50% in size
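Compounds were scored for reversing the slow growth caused by influenza A NS1 in S. cerevisiae, measured by optical density at 600 nm. Assay medium contained 2% galactose at pH 6.0; NS1-free yeast of the same strain were the positive control.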
SARS PLpro yeast: inhibitors of SARS-CoV papain-like protease in yeast | S. cerevisiae expressing SARS-CoV PLpro, growth rescue; control for the full effect not named in the record | AID 485353 | actives 0.19% (n = 330,000) | Potency, µM (highest dose often 32.9 µM), inactives show top-dose activity, positive = growth rescue; also: 0% is about no effect; nearly all actives have a fitted effect of over 55% in size; growth read by luminescence after 48 h
Starred values were filed as active, the others as inactive; u = inconclusive; x = not tested or not shown; & = joins results of further samples; [ ] = dose if it differs, or a comment. Unless noted, calls follow the shape of the dose curve; as a rule, active means well fitted rising curve with a large enough effect; inconclusive means small, poorly fitted or top-dose-only effect; inactive means no such curve, though single readings can be large or run the other way. Potency is read from the fitted curve at half-maximal effect. Rows are unselected. Share with any hit: about 4.6%.

canonical_smiles | Cruzain inh noDet | RE007 growth inh | NS1 inh | SARS PLpro yeast | Lassa entry inh | Cruzain inh Det | MARV entry inh | 2A StopGo
COc1ccc(-c2cn[nH]c2-c2ccc(OC)cc2)cc1 | x | 0% | 14% | -2% | x | x | x | u
CC(C)(C)C1CCC2(CC1)C(C#N)=C(SCC(=O)NC1CCCCC1)NC(=O)C2C#N (stereo not drawn) | 19% | 7% | 28% | 0% | -8% | -8.1% | -28% | x
CSc1ccc(CCNC(=O)c2c(C)nn(-c3ccc(F)cc3)c2-n2cccc2)cc1 | u | x | x | x | u | -6.4% | x | u
Brc1ccc(-c2cn3ccccc3n2)s1 | 4% | u | -103% | -42% | u | -5.0% | u | -65%
CC(NC(=O)COC(=O)c1cc(=O)[nH]c2ccccc12)c1ccccc1 (stereo not drawn) | x | 10% | x | -1% | 13%[46.1 µM] | x | 7%[46.1 µM] | 1%
Cc1ccc2c(c1)N(C(=O)CCC(=O)NCCCN1CC(C)CC(C)C1)CCO2 (stereo not drawn) | x | -12% | 11% | 2% | x | x | x | 6%
Cc1ccc2c(CSc3nc4ccccc4c(=O)n3CCCO)cc(=O)oc2c1C | u | 9% | 0% | 1% | u | 1.7% | u | -17%
CCc1nnc(NC(=O)c2nc(SCc3ccccc3C)ncc2Cl)s1 | -12% | x | x | x | 8%[46.1 µM] | -4.5% | u | -2%
Cc1nc(-c2ccc(S(=O)(=O)Nc3ccc(C)c(N(C)C)c3)cc2)co1 | 0% | x | x | x | -21%[46.1 µM] | -3.7% | x | -4%
CC(=O)Cc1nsc(NC(=O)c2ccccc2Cl)n1 | x | 10% | x | -8% | 17% | x | 6%[46.1 µM] | 26%
O=C(OCc1ccc([N+](=O)[O-])cc1Cl)c1cnccn1 | x | -18% | -6% | 4% | -3%[46.1 µM] | x | 0%[46.1 µM] | -7%
Cc1c(-c2nnc(SCC(=O)Nc3ccccc3F)o2)nnn1-c1ccc(F)cc1 | -2% | x | x | x | -14%[46.1 µM] | -7.8% | x | 30%
O=C1C2C3C=CC(O3)C2C(=O)N1N=Cc1ccc2c(c1)OCO2 (stereo not drawn) | x | -4% | x | x | 1%[46.1 µM] | x | u | 13%
Cc1ccc(NC(N)=S)cc1 | -1% | -5% | 10% | 18% | -20% | 2.1% | -1% | -8%
COc1ccc(/C=C(\C#N)C(=O)OCC(=O)N2CC(C)OC(C)C2)cc1 (stereo not drawn) | x | 7% | -1% | -1% | 3%[46.1 µM] | x | u | -11%
Cc1nc(NC(=O)C23CCC(C)(C(=O)O2)C3(C)C)sc1C (stereo not drawn) | -2% | 30% | 0% | 2% | 0% | -1.2% | -9% | -21%
COc1ccc(OC)c(/C=N/NC(=S)NCCc2ccccc2)c1 | x | 4% | 10% | -4% | u | x | -25%[46.1 µM] | -24%
CCOC(=O)COc1ccc(/C=C2/C(=O)NN(c3ccc(F)cc3)C2=O)cc1OC | x | -8% | 6% | 5% | x | x | x | -13%
Cn1c(SCC(=O)Nc2ccc(F)cc2F)nnc1-c1cccnc1 | -2% | 2% | u | 16% | x | 2.4% | x | 16%
Cc1ccc(C)c(S(=O)(=O)N2CCN(CC(=O)Nc3cc(C)on3)CC2)c1 | -2% | 3% | -17% | 1% | 0% | -1.3% | -4% | -3%
CC(C(=O)Nc1sc2c(c1C(=O)NCC1CCCO1)CCC2)N1C(=O)c2ccccc2C1=O (stereo not drawn) | u | -1% | 18% | 19% | -9% | -3.7% | u | -27%
O=C(Nc1ccccc1)/C(=C\c1cccs1)NC(=O)c1ccccc1 | -9% | 1% | -2% | -5% | -21% | -2.9% | 1% | -9%
Cc1ccc(CSc2nc3ccncc3n2Cc2nc(-c3ccccc3C)oc2C)cc1 | 10% | x | x | x | 1%[46.1 µM] | -15% | u | -1%
CCOC(=O)c1ccc(NC(=O)c2cc3cc(C)ccc3n2C)cc1 | -14% | x | x | x | 0%[46.1 µM] | -3.8% | -5%[46.1 µM] | -17%
COc1cccc(-c2cc(C(F)(F)F)nc(N3CCC(C)CC3)n2)c1 | -3% | 24% | 5% | -2% | 3% | 4.1% | u | -16%
CC(=O)c1c(COC(=O)c2ccccc2Cl)nc2ccccc2[n+]1[O-] | x | 12% | 7% | 0% | x | x | 5% | -29%
COc1ccc(-n2c(SCC(=O)N3CCOCC3)nc(O)c(Cc3ccccc3)c2=O)cc1 | -8% | 3% | 1% | -1% | 12% | 1.9% | 5% | -11%
Nc1nonc1C(=O)NCCNCc1ccccc1OCc1ccc(F)cc1 | -3% | -19% | -3% | 4% | -27% | 2.4% | u | u
COc1ccc(NC(=O)C2C3CCC(O3)C2C(=O)O)cc1OC (stereo not drawn) | x | -16% | 4% | -3% | x | x | x | -10%
O=C(NC1CN2CCC1CC2)c1cc(Cl)c([N+](=O)[O-])c2nc[nH]c12 (stereo not drawn) | -19% | -10% | 13% | 15% | u | -8.2% | u | -15%

Arranged by formula weight (falling): 3 of the compounds above.
canonical_smiles | Cruzain inh noDet | RE007 growth inh | NS1 inh | SARS PLpro yeast | Lassa entry inh | Cruzain inh Det | MARV entry inh | 2A StopGo
Cc1c(-c2nnc(SCC(=O)Nc3ccccc3F)o2)nnn1-c1ccc(F)cc1 | -2% | x | x | x | -14%[46.1 µM] | -7.8% | x | 30%
CCc1nnc(NC(=O)c2nc(SCc3ccccc3C)ncc2Cl)s1 | -12% | x | x | x | 8%[46.1 µM] | -4.5% | u | -2%
CC(=O)c1c(COC(=O)c2ccccc2Cl)nc2ccccc2[n+]1[O-] | x | 12% | 7% | 0% | x | x | 5% | -29%

More structures:
canonical_smiles | Cruzain inh noDet | RE007 growth inh | NS1 inh | SARS PLpro yeast | Lassa entry inh | Cruzain inh Det | MARV entry inh | 2A StopGo
O=C(O)CN1C(=O)/C(=C\c2cn(-c3ccccc3)nc2-c2ccccc2)SC1=S | x | 7% | u | 1% | -18% | x | 8%[46.1 µM] | -17%
Cn1c(=O)c(Cc2ccccc2)c(O)c2ccccc21 | -1% | -4% | -72% | 10µM* | 11% | 2.6% | 7% | 11%
N#Cc1sc2nc(-c3ccccc3)cc(C(F)(F)F)c2c1N | x | 1% | x | 4% | 21%[46.1 µM] | x | u | 9%
CN(C)S(=O)(=O)c1ccc(S(=O)(=O)N2CCN(CCC#N)CC2)cc1 | -8% | -9% | -1% | 6% | x | -1.0% | x | 0%
Clc1ccc(/C=C/c2nc3ccccc3[nH]2)cc1 | 16µM* | u | -61% | -28% | u | -20% | 8.2µM* | -71%
CC1CC(C)CN(c2ccc(-n3cnnn3)cc2[N+](=O)[O-])C1 (stereo not drawn) | 3% | -7% | 6% | -1% | -17% | -5.5% | u | -16%
c1ccc2c(c1)CCN(C1CCCCC1)C2 | x | 1% | 3% | -8% | x | x | x | -11%
CCOC(=O)C1(c2ccccc2)NC(c2ccccc2C)C2C(=O)N(c3ccc4c(c3)OCO4)C(=O)C21 (stereo not drawn) | -1% | 15% | -5% | -10% | -12% | -11% | u | 4%
CCOC(=O)N1CCN(/C=C(\C#N)c2nc3ccccc3s2)CC1 | 12% | -5% | -19% | 1% | u | -13% | -5% | -5%
CC(C)NC(=O)CN1CCC(c2nc3ccccc3[nH]2)CC1 | x | 18% | 4% | -2% | x | x | x | -15%
COc1cc(CNCc2ccccn2)ccc1OCc1ccccc1Cl | -1% | -5% | 6% | 14% | -18% | 0.3% | u | u
O=C(COC(=O)/C=C/c1cccc(Br)c1)NCCC1=CCCCC1 | u | -5% | -24% | u | -4% | -3.9% | 8% | -21%
CCOC(=O)c1c(S(=O)(=O)NCc2ccc(C)o2)c(C)n(C)c1C | x | -4% | -9% | -3% | x | x | x | 0%
Cc1ccc(NC(=O)CCN2C(=O)c3cccc4cccc(c34)C2=O)cc1 | x | 7% | x | 1% | -2%[46.1 µM] | x | -8%[46.1 µM] | -9%
Cc1ccc(S(=O)(=O)N2CCC(C(=O)OCC(=O)N(C)C3CCCCC3)CC2)cc1C | x | -5% | x | -1% | u | x | u | -12%
COc1ccc(-c2noc(N3CCC(C(=O)NCCCN4CCC(C)CC4)CC3)n2)cc1 | x | -4% | 6% | 4% | x | x | x | -26%
CCc1ccc(CNC(=O)CCC(=O)N2Cc3cccc(OC)c3Oc3ncccc32)cc1 | 8% | 10% | 7% | 4% | 19%[46.1 µM] | -1.0% | x | -19%&-9%
Cc1ccc(C)c(NC(=S)NCc2ccccc2)c1 | x | 17% | -3% | 2% | u | x | 1%[46.1 µM] | -8%
CCN1CCOC(CC(=O)Nc2ccc([N+](=O)[O-])cc2)C1=O (stereo not drawn) | x | 45µM* | -73% | -19% | 16% | x | -6%[46.1 µM] | -4%

Among those listed so far, 7 have fluorine:
canonical_smiles | Cruzain inh noDet | RE007 growth inh | NS1 inh | SARS PLpro yeast | Lassa entry inh | Cruzain inh Det | MARV entry inh | 2A StopGo
CSc1ccc(CCNC(=O)c2c(C)nn(-c3ccc(F)cc3)c2-n2cccc2)cc1 | u | x | x | x | u | -6.4% | x | u
Cc1c(-c2nnc(SCC(=O)Nc3ccccc3F)o2)nnn1-c1ccc(F)cc1 | -2% | x | x | x | -14%[46.1 µM] | -7.8% | x | 30%
CCOC(=O)COc1ccc(/C=C2/C(=O)NN(c3ccc(F)cc3)C2=O)cc1OC | x | -8% | 6% | 5% | x | x | x | -13%
Cn1c(SCC(=O)Nc2ccc(F)cc2F)nnc1-c1cccnc1 | -2% | 2% | u | 16% | x | 2.4% | x | 16%
COc1cccc(-c2cc(C(F)(F)F)nc(N3CCC(C)CC3)n2)c1 | -3% | 24% | 5% | -2% | 3% | 4.1% | u | -16%
Nc1nonc1C(=O)NCCNCc1ccccc1OCc1ccc(F)cc1 | -3% | -19% | -3% | 4% | -27% | 2.4% | u | u
N#Cc1sc2nc(-c3ccccc3)cc(C(F)(F)F)c2c1N | x | 1% | x | 4% | 21%[46.1 µM] | x | u | 9%
